Bioassay records deposited in PubChem by several laboratories.
BJeLR viability = kills HRASV12-expressing BJeLR cells; BJeLR (HRASV12) viability, CellTiter-Glo ATP luminescence, 48 h; reference of the scale not given here; inhibition, % (concentration not given with the values); 300,000 compounds, 0.17% hits; AID 1554;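 active = replicate mean above 50%; inconclusive = above 50% but judged a plate artefact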;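 also: 50 nL library stock added to about 25 µL; numbers are from one replicate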
Mtb hypoxia rep = inhibitors of hypoxia-regulated fluorescent reporter in Mycobacterium tuberculosis; M. tuberculosis hypoxia-regulated fluorescent reporter, fluorescence; fluorescence inhibition, % (test concentration not listed); 300,000 compounds, 0.1% hits; AID 1159583;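 active = 35 to 45% if threefold the growth effect, above 45% if 1.5-fold the growth effect; inactive = the rest, general growth blockers included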;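 also: wells of about 50 µL received 100 nL stock; 0% = vehicle wells and 100% = reference inhibitor wells; whole bacteria with a GFP reporter of the hypoxia response; strong numbers were not always called active; many hits fall short of the cut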
ugtP null kill = kills S. aureus RN4220 lacking UgtP | 330,000 compounds, 0.54% hits | S. aureus RN4220 ugtP deletion, OD600 growth, 16 h; some inactives read as strong as hits | growth inhibition, % (no concentration beside the values);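 active = z-score under -3 and OD600 up to 0.15 on both plates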;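 also: plate controls were untreated wells for no effect and antibiotic for full effect; wells of about 80 µL received 100 nL stock; the first replicate is given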
RN4220 kill = S. aureus RN4220 growth inhibition | inhibition, % (test concentration not listed) | OD600, 16 h | AID 1259311 | 330,000 compounds, 0.33% hits;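 active = z-score of -3 or lower and OD600 up to 0.18 on both plates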;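 also: plate controls were untreated cells for no effect and reference antibiotic for full effect; stock transfer was 100 nL into about 80 µL; one replicate is shown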
Autofluor counter = compound fluorescence in toxin protease inhibitor counterscreen; compound autofluorescence counterscreen, microsphere flow cytometry; stronger effect = higher value; fluorescence intensity (test concentration not listed); 360,000 compounds, 3.1% hits; AID 624483;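 active = at least 3 SD above the mean of all compounds, about 16000 in these data; inconclusive = too few beads counted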;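 also: 100 nL of 1 mM stock went into each well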
PrP 5UTR inh = inhibition of PrP 5' UTR reporter expression. cell-based PrP 5' UTR mRNA reporter, plate reader. inhibition, % (concentration not given with the values). 340,000 compounds, 0.35% hits;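 active = every replicate at 50% or more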;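 also: 0 = median of the neutral control wells; tested in H4 reporter cells; numbers are from one replicate; inactives centre near -14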
Mtb hypoxia rep growth = further read-out of Mtb hypoxia rep, marked with its call; growth inhibition, %; measured here: M. tuberculosis growth (absorbance);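 0% = vehicle and 100% = reference antibiotic; read after six days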
* = called active by the depositor; ? = inconclusive; nt = no result given; & = joins results of further samples.

SMILES	BJeLR viability	Mtb hypoxia rep	Mtb hypoxia rep growth	ugtP null kill	RN4220 kill	Autofluor counter	PrP 5UTR inh
CN1CCN(S(=O)(=O)c2ccc3c(c2)oc(=O)n3C)CC1	1	0	3	-4	-1.2	6354	-19
Cc1scc(-c2n[nH]c(=S)n2Cc2ccccc2)c1C	8	6	6	-3	6.7	1955	-16
CC1CN(C(C)CO)C(=O)c2cccc(NC(=O)NC3CCCCC3)c2OC1CN(C)C(=O)Nc1ccc(C(F)(F)F)cc1 (stereo not drawn)	nt	-2&-2	1&13	10&-27	-7.2&-1.4	nt	nt
COc1ccc(C(=O)N/C(=C/c2cccnc2)C(=O)N2CCCCCC2)cc1OC	-2	-2	-5	-5	-3.4	4249	-9
CCOC(=O)C1C(=O)OC(C)(C)C1C(CC)C(=O)c1ccccc1 (stereo not drawn)	-1	13	9	4	4.3	4299	20
NS(=O)(=O)c1ccc(CCNC(=O)CCCCCNc2nc(=S)[nH]c3ccccc23)cc1	-10	-8	3	-1	-0.3	nt	nt
CCn1nc(C(=O)NNC(=O)C2CSC3(C)CCC(=O)N23)c2ccccc2c1=O (stereo not drawn)	nt	3	-5	0	-0.4	nt	nt
COc1cccc(OC)c1NC(=O)C1CCCN1C(=O)Nc1ccccc1Cl (stereo not drawn)	-12	-8	-10	7	-4.1	3884	-19
CCOC(=O)C1=C(C)NC(=S)N(C(C)=O)C1c1ccc(OC)c(OC)c1 (stereo not drawn)	4	2	-1	-4	-5.9	nt	-11
CC1(C)Cc2nc(NC3CCCCC3)c(C#N)cc2CO1	-3	5	0	1	6.6	4291	-7
CCCCn1c(N)c(N(CC(C)C)C(=O)c2ccc(-c3ccc(Cl)cc3)o2)c(=O)[nH]c1=O	nt	11	-1	9	16	4228	-5
Cc1cc(C)cc(OC(=O)c2cccnc2)c1	-1	19	12	0	1.3	3879	-1
COc1cc(C=NNC(=O)c2cc(-c3cccc(OC(C)C)c3)nc3ccccc23)ccc1O	nt	-1	3	-11	5.1	nt	nt
N#Cc1ccc(C(=O)Nc2cc(S(=O)(=O)N3CCOCC3)ccc2N2CCCC2)cc1	nt	-4	-6	-2	-5.8	?	-11
CC(C)N1CCN(Cc2ccsc2)CC1CCO (stereo not drawn)	-6	3	3	5	2.3	4435	-22
COc1ccc2c(c1OC)C(=O)OC2c1c(O)n(Cc2ccc(F)cc2)c(=O)[nH]c1=O (stereo not drawn)	-1	-3	-2	-1	0.8	5085	-20
O=C(COc1ccc(S(=O)(=O)N2CCCC2)cc1Cl)NCc1ccccn1	-13	12	8	-1	-1.4	5932	-4
Cc1nnc(SCc2cccc(CSc3nnc(C)s3)c2)s1	3	nt	nt	5	3.3	3886	-32
Cc1cc(CNC(=O)C2CC2C(NP(=O)(c2ccccc2)c2ccccc2)c2ccccc2)nn1C (stereo not drawn)	nt	12	3	-10	4.5	nt	nt
CCC(C)NC(=O)CC(C)C (stereo not drawn)	7	14	10	3	6.1	4775	-15

Quoted at random: 4 records from the list, in no set order.
SMILES	BJeLR viability	Mtb hypoxia rep	Mtb hypoxia rep growth	ugtP null kill	RN4220 kill	Autofluor counter	PrP 5UTR inh
CCCCn1c(N)c(N(CC(C)C)C(=O)c2ccc(-c3ccc(Cl)cc3)o2)c(=O)[nH]c1=O	nt	11	-1	9	16	4228	-5
CN1CCN(S(=O)(=O)c2ccc3c(c2)oc(=O)n3C)CC1	1	0	3	-4	-1.2	6354	-19
COc1ccc2c(c1OC)C(=O)OC2c1c(O)n(Cc2ccc(F)cc2)c(=O)[nH]c1=O (stereo not drawn)	-1	-3	-2	-1	0.8	5085	-20
CCn1nc(C(=O)NNC(=O)C2CSC3(C)CCC(=O)N23)c2ccccc2c1=O (stereo not drawn)	nt	3	-5	0	-0.4	nt	nt

(more compounds)
SMILES	BJeLR viability	Mtb hypoxia rep	Mtb hypoxia rep growth	ugtP null kill	RN4220 kill	Autofluor counter	PrP 5UTR inh
CCOC(=O)Cc1csc(NC(=O)CC(C)(C)C)n1	5	-14	-1	0	-5.6	3959	-28
CCOC(=O)N1CCC(N2CCN(CCC(C)C)C(CCO)C2)CC1 (stereo not drawn)	-7	3	-3	9	4.2	2421	-14
O=C1C=C(c2ccc3[nH]ccc3c2)CC(c2ccc(Cl)cc2)C1 (stereo not drawn)	nt	1	3	-35	-9.9	nt	nt
CCOC(=O)N1CCN(c2c(NCCN3CCCCC3CC)c(=O)c2=O)CC1 (stereo not drawn)	-3	16	10	3	3.0	4063	-22
O=C(NCc1cc(C(F)(F)F)cc(C(F)(F)F)c1)C1CC(c2ccccc2[N+](=O)[O-])=NO1 (stereo not drawn)	6	nt	nt	nt	nt	3642	-11
CC(=O)OC1C(OC(=O)CC(C)C)c2c(ccc3ccc(=O)oc23)OC1(C)C (stereo not drawn)	nt	10	9	-5	4.7	nt	nt
O=C(COc1ccccc1Cl)Nc1ccc(C(=O)N2CCCCC2)cc1	0	0	-2	7	5.0	2850	-11
COc1ccc(/C=N/NC(=O)CNC(=O)c2ccc(S(=O)(=O)N3CCOCC3)cc2)cc1OC	17	nt	nt	nt	nt	10461	-28
NC1=NC(=Nc2ccc(S(N)(=O)=O)cc2)c2ccccc21	-9	10	0	2	1.6	5539	-22
O=C(COC(=O)CNC(=O)c1ccccc1)Nc1ccc(S(=O)(=O)N2CCCC2)cc1	-5	0	0	13	6.7	4297	-25
CCc1ccc(S(=O)(=O)Nc2ccc(N3CCN(C)CC3)cc2)cc1	2	10	2	6	3.3	3060	-34
COc1ccc(NS(=O)(=O)c2ccc(C(=O)N3CCC(C)CC3)cc2)cc1	nt	-5	-11	4	1.9	3887	8
O=C(/C=C/c1cccs1)NC1CCCC1	-4	nt	nt	5	-0.5	2808	-26
O=C(OC(C(=O)NC1CCCCC1)c1ccccc1F)c1ccco1 (stereo not drawn)	-13	5	2	11	1.0	5803	-10
Cc1ccc2nsnc2c1S(=O)(=O)NCc1cccnc1	-3	11	16	-4	7.5	22869*	-38
COc1ccccc1NC(=O)c1ccc(S(=O)(=O)NCc2ccco2)cc1	-11	7	-3	0	1.4	4313	-19
O=C(Nc1cc(SCCO)cc([N+](=O)[O-])c1)c1ccco1	-6	2	6	-2	4.7	2009	-24
CC(C)c1ccc(C(=O)NCCCN(C)C)cc1	-2	2	8	-2	2.3	2030	-6
O=C(NNS(=O)(=O)c1ccccc1)C1CC(c2cccnc2)=NO1 (stereo not drawn)	-1	11	14	6	6.0	4068	-20
O=C(NC1CCCCCCC1)c1cc(COc2ccc3ncccc3c2)on1	23	-7	9	15	2.3	3969	-21
COc1ccc(CCNc2oc(COc3ccccc3F)nc2C#N)cc1OC	nt	5	5	1	-2.1	3782	-7
O=C(CCC(=O)N(CC(=O)NC1CCCCC1)c1ccccc1F)Nc1nccs1	-1	5	5	9	-0.2	3621	-7
O=C(CNC(=S)N(Cc1ccccc1F)C1CCCCC1)NCC1CCCO1 (stereo not drawn)	11	-10	10	-11	-0.6	3900	-25
Cc1ccccc1NC(=O)NCCN1CC1	1	nt	nt	nt	nt	3713	-20
COc1ccc(C(C(=O)NC2CCCC2)N(CCO)C(=O)Cn2nnc(-c3ccc(C)o3)n2)cc1OC (stereo not drawn)	0	-3	-1	-1	2.5	4612	-6
CCCCCC(=O)Nc1nc(C)c(-c2csc(Nc3cc(Cl)ccc3OC)n2)s1	0	3	7	-25	-9.8	2829	0
COc1cc(C=NNC(=S)NC(C)C)ccc1OCC(=O)Nc1c(C)cc(C)cc1C	nt	6	7	6	7.7	nt	nt
O=C(COC(=O)C1CCCCC1)Nc1ccccc1OC(F)F	12	-1	7	-4	2.7	4348	-22
COc1ccc(-c2nn(-c3ccccc3)cc2C(=O)N2CCN(C(=O)c3ccco3)CC2)cc1	nt	12	6	5	-0.4	3720	-8
CCN=C1SC(CC(=O)Nc2sc(C)c(C)c2C(=O)OC)C(=O)N1CC (stereo not drawn)	-16	12	9	-6	-9.2	2401	-5
C=CCn1c(CNS(=O)(=O)c2ccc(Br)cc2)n[nH]c1=S	5	-3	-2	6	1.1	5981	-25
CCOC(=O)c1cnc(COc2ccc(OC)cc2)[nH]c1=O	5	14	11	11	5.3	5908	-35
COc1cccc(CNC(=O)Cn2nc([N+](=O)[O-])c(Br)c2C)c1	-15	nt	nt	nt	nt	4112	-19
COc1ccc(-c2nn(CCC#N)cc2C(=O)O)cc1	-3	7	17	1	2.9	5058	-24
C=CCN(c1ccccc1)S(=O)(=O)c1cccc(C(=O)NNC(=O)c2ccncc2)c1	-10	6	2	-1	6.4	5672	-10
Cc1ccc(C(C(=O)Nc2ccc3c(c2)OCO3)N(C)C(=O)Cc2c[nH]c3ccccc23)cc1 (stereo not drawn)	1	8	7	15	-0.4	2111	0
CN1C(=O)NC(c2ccc([N+](=O)[O-])cc2)C2=C1CC(C)(C)CC2=O (stereo not drawn)	-1	4	0	6	3.6	3810	-18
CCCc1cc(=O)[nH]c(SCc2nc3ccc([N+](=O)[O-])cc3[nH]2)n1	3	-2	-1	-7	1.1	2365	-17
COc1ccc(CNC(=O)CCCn2nc(C)c([N+](=O)[O-])c2C)cc1	3	0	-1	5	0.0	6991	-18
O=C(c1cccs1)N1CCN(S(=O)(=O)c2ccc(F)cc2)CC1	-7	4	2	5	9.0	nt	nt

Among those listed so far, these contain a cyano group.
SMILES	BJeLR viability	Mtb hypoxia rep	Mtb hypoxia rep growth	ugtP null kill	RN4220 kill	Autofluor counter	PrP 5UTR inh
CC1(C)Cc2nc(NC3CCCCC3)c(C#N)cc2CO1	-3	5	0	1	6.6	4291	-7
N#Cc1ccc(C(=O)Nc2cc(S(=O)(=O)N3CCOCC3)ccc2N2CCCC2)cc1	nt	-4	-6	-2	-5.8	?	-11
COc1ccc(CCNc2oc(COc3ccccc3F)nc2C#N)cc1OC	nt	5	5	1	-2.1	3782	-7
COc1ccc(-c2nn(CCC#N)cc2C(=O)O)cc1	-3	7	17	1	2.9	5058	-24

The main list resumes with the 3 entries that preceded the break.
SMILES	BJeLR viability	Mtb hypoxia rep	Mtb hypoxia rep growth	ugtP null kill	RN4220 kill	Autofluor counter	PrP 5UTR inh
CCCc1cc(=O)[nH]c(SCc2nc3ccc([N+](=O)[O-])cc3[nH]2)n1	3	-2	-1	-7	1.1	2365	-17
COc1ccc(CNC(=O)CCCn2nc(C)c([N+](=O)[O-])c2C)cc1	3	0	-1	5	0.0	6991	-18
O=C(c1cccs1)N1CCN(S(=O)(=O)c2ccc(F)cc2)CC1	-7	4	2	5	9.0	nt	nt
CCOc1ccc(C(c2c(O)nc(SC)n(C)c2=O)c2c(O)nc(SC)n(C)c2=O)cc1	-3	2	10	5	3.6	22263*	-24
CCC(C)C(NC(=O)c1ccccc1NC(=O)c1ccco1)C(=O)NNC(=O)c1ccncc1 (stereo not drawn)	1	0	-8	1	-0.3	5963	-10
Cc1nc(-c2ccc(NC(=O)C3CCCCC3)cc2)cs1	0	6	10	-14	5.2	nt	-105
CCC(C(=O)O)N1C(=O)c2ccccc2C1=O (stereo not drawn)	-4	4	-3	8	7.4	11272	-23
COc1ccc(-c2csc3ncnc(Nc4ccc(O)cc4)c23)cc1	13	-9	-12	8	3.5	4984	-3

A second format for two compounds above.
> Cc1nc(-c2ccc(NC(=O)C3CCCCC3)cc2)cs1
  BJeLR viability: 0; Mtb hypoxia rep: 6; Mtb hypoxia rep growth: 10; ugtP null kill: -14; RN4220 kill: 5.2; Autofluor counter: nt; PrP 5UTR inh: -105

> COc1ccc(-c2csc3ncnc(Nc4ccc(O)cc4)c23)cc1
  BJeLR viability: 13; Mtb hypoxia rep: -9; Mtb hypoxia rep growth: -12; ugtP null kill: 8; RN4220 kill: 3.5; Autofluor counter: 4984; PrP 5UTR inh: -3
